Vif TR-FRET = HIV-1 Vif–A3G interaction blockers – biochemical, TR-FRET, GST-Vif 1-94, biotin-A3G peptide, dose response retest, primary screen (AID 1117319) | TR-FRET GST-Vif / biotin-A3G peptide binding; higher % means a stronger effect; test concentration not given here; strong numbers were not always called active | 0.57% of 260,000 active | inhibition, %, or IC50 in µM where a hit was titrated;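 active means above the screen mean plus three standard deviations and confirmed in dose response; inconclusive means results disagree or hit not tested in dose response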;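 further: Vif residues 1-94 fused to GST binding biotinylated APOBEC3G peptide 110-148; 0% = full assay without inhibitor and 100% = GST in place of GST-Vif; retest series ran down from 100 µM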
Beta2AR agonist = human beta-2 adrenergic receptor agonism by FAP | response, % (concentration not given with the values) | 0.43% of 340,000 active | Am2.2-beta2AR cells, FAP receptor internalization, flow cytometry; reference of the scale not given here;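 active means response above a set limit, near 3 SD of response in nonfluorescent compounds, cut at about 42% in these data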;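 further: stock transfer was 100 nL into about 11 µL; a reference agonist was the positive control; negative values mostly stem from fluorescent compounds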
Target sequence (P07550 whole entry, looked up): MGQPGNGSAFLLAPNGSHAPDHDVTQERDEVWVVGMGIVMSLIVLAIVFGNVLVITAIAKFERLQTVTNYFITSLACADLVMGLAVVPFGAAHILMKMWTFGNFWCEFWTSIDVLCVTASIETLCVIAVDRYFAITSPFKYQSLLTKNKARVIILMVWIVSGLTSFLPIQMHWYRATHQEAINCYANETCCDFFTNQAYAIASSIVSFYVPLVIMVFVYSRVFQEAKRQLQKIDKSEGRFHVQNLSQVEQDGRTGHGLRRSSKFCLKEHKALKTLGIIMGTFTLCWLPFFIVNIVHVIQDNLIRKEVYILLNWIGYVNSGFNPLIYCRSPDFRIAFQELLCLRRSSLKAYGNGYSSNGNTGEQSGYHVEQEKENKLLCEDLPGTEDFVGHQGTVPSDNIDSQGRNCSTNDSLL
ALR H2O2 inh = blocks human ALR sulfhydryl oxidase activity; P55789; inhibition, % (test concentration not listed); purified ALR, DTT oxidation, H2O2 HRP-luminol luminescence; 3.8% of 290,000 active;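 active means mean and each replicate at 75% or more; inconclusive means only one of the two met; inactive means neither met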;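 further: stock transfer was 7.5 nL into about 7.5 µL; 0% = neutral wells and 100% = wells with inactivated enzyme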
Target sequence (P55789 whole entry, looked up): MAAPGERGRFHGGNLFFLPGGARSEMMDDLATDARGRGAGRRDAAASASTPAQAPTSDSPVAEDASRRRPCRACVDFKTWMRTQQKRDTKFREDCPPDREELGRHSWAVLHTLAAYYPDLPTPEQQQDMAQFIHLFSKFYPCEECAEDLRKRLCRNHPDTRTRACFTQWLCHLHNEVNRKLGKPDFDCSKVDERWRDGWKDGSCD
Calb FLC = affects C. albicans growth with fluconazole. C. albicans CaCi-2 (fluconazole-resistant clinical isolate) + fluconazole, Alamar Blue growth, 48 h. growth inhibition, % (no concentration beside the values). 0.57% of 300,000 active. AID 1979;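 active means most replicates above 75%; inconclusive means exactly half above 75%; inactive means most below 75%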;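 further: all wells also contain fluconazole at 8 µg/ml as a sub-toxic cotreatment; 0% = median of DMSO wells and 100% = median of geldanamycin control wells; wells of about 8 µL received 7.5 nL stock; the first replicate is given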
RanGTP-Imp inh = disruptors of Ran-importin-beta complex formation – biochemical, FRET, CFP-Ran, YFP-importin-beta, homogeneous, primary screen; cell-free CFP-Ran/YFP-importin-beta FRET ratio; inhibition, % (test concentration not listed); 1.1% of 300,000 active;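 active means most replicates above 15%; inconclusive means exactly half above 15%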;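 further: 0% = DMSO wells and 100% = Ran loaded with GDP instead of GTP; wells of about 40 µL received 100 nL stock; the first replicate is given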
LANA-H2B inh = blocks KSHV LANA binding to histone H2A/H2B. cell-free LANA-H2A/H2B peptide, fluorescence polarization. 0.6% of 320,000 active. AID 2629. Q9QR71. inhibition, % (concentration not given with the values); in the data active means inhibition mostly above about 10%, no sharp cut-off; inactive means mostly below about 6.7%;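 further: stock transfer was 7.5 nL into about 10 µL; 0% = median of vehicle wells and 100% = median of positive control wells; one replicate is shown; the record names a cut of 25% in any replicate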
HNF4A DNA FP = change in binding of human HNF4 alpha to DNA | P41235 | HNF4a-FITC DNA binding, fluorescence polarization, 1 h | activity change, % at 10 µM | 0.3% of 360,000 active | AID 1224865; in the data active means activity change above about 30%, passing the limit was not always enough;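 further: controls were the assay level and a saturating level of protein; the project sought stronger binding though the title names inhibitors; some compounds called inactive have numbers as strong as hits; positive values seem to mean higher polarization but the record does not say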
The depositor's hits bear a star; ? = inconclusive; nt = no result given. Rows are unselected. About 6.3% of those tested had a hit in this group.

Each structure is followed by: Vif TR-FRET, Beta2AR agonist, ALR H2O2 inh, Calb FLC, RanGTP-Imp inh, LANA-H2B inh, HNF4A DNA FP
- N#Cc1ccc(-c2ccc(Cl)cc2)nc1SCC(=O)c1cccc(Cl)c1
  -3%, -60, 32, -4, 1.0, 0.2, 1.6
- CCOC(=O)C1=C(CSc2nc3ccccc3s2)NC(=O)NC1c1cc(C)ccc1C (stereo not given)
  -1%, -2, -8, 8, 2.8, 0.9, 4.0
- O=C(Nc1ccc(F)cc1)N(Cc1cccs1)Cc1cc2cc3c(cc2[nH]c1=O)OCO3
  19%, 9, 1, 0, 1.4, 0.4, -0.8
- CC(C)n1cc(/C=N\NC(=O)c2cc3c(ccc4ccccc43)o2)c2ccccc21
  -2%, 4, nt, nt, nt, nt, 2.6
- O=C(CCC(=O)Nc1cccc(Cl)c1)N/N=C/c1cc([N+](=O)[O-])ccc1O
  8%, 3, -4, ?, -0.2, 0.8, -0.3
- O=C(Nc1ccc(NS(=O)(=O)c2ccccc2)cc1)c1ccc(Cl)cc1
  nt, 9, 16, 8, -2.4, -0.6, -1.9
- CN(C)C(=O)c1ccc2c(c1)n(C)c(=O)n2C
  0%, -5, -1, 3, 2.9, 3.0, -2.7
- CC1CCC(C(C)C)C(OCC[N+](C)(C)C)C1 (stereo not given)
  nt, 7, 0, -13, -1.7, 1.7, -0.8
- O=C1Nc2cc(C(=O)NCC3CCCO3)ccc2S/C1=C/c1ccccc1F (stereo not given)
  nt, 7, -1, 43, -0.2, 1.5, 2.1
- CCNC(=O)COc1ccc(/C=N/NC(=O)c2cccnc2)cc1OC
  -9%, 4, 7, -2, -0.7, 1.9, -2.7
- Cc1sc2ncn(CC(=O)NCCN(C)C)c(=O)c2c1S(=O)(=O)N1CCC(C)CC1
  nt, 2, -2, -6, 5.3, -2.6, 1.3
- O=C(C1CCCN(S(=O)(=O)c2cccs2)C1)N1CCc2ccccc2C1 (stereo not given)
  -5%, -5, 15, 1, -0.4, 0.1, -1.1
- CCOC(=O)Cn1c(=O)oc2cc(S(=O)(=O)NC(C)c3ccccc3)ccc21 (stereo not given)
  20%, -3, -2, -3, 0.2, -1.6, -1.4
- CCn1c(CNC(=O)c2cccc(C)c2)nnc1SCC(=O)NC1=NCCS1
  -12%, 7, 1, -3, -1.2, 0.7, -2.8
- COc1ccc(CCNC(=O)CCS(=O)(=O)c2ccc3c(c2)NC(=O)CS3)cc1OC
  7%, -1, -1, -1, 0.2, -2.3, -3.5
- CCn1cc(CN2CCc3c([nH]c4ccccc34)C2c2cccc(OC)c2OC)c(C)n1 (stereo not given)
  2%, -7, 3, -5, -7.5, -4.9, -3.0
- CCCCN1C(=O)C2(OCCCO2)c2cccc(C)c21
  nt, 4, -6, 4, 2.1, 18*, 5.9
- C=CCN1CCN(c2ccncc2S(=O)(=O)N2CCOCC2)CC1
  -3%, 1, -2, 11, 1.6, 0.6, 0.9
- O=C1CN(C(=O)c2cccc(S(=O)(=O)N3CCCC3)c2)c2ccccc2N1
  4%, -7, -6, 0, -2.8, -3.5, -0.2
- Cc1ccc(C)c(N2CCN(C(=O)c3cc4ccccn4n3)CC2)c1
  ?, -7, -40, 7, -27, 30*, -19
- Cc1cc(C)nc(NC(=S)NC(=O)c2ccccc2)n1
  -7%, -7, 25, -6, -2.7, 0.1, 1.8
- O=C(Nc1nc(-c2ccc(Cl)s2)cs1)c1ccco1
  nt, -6, 16, -39, 3.0, 0.0, -3.2
- O=C(Cc1ccc(-n2c(=O)c3ccccc3n(Cc3ccc(F)cc3)c2=O)cc1)NCC1CCCO1 (stereo not given)
  2%, -8, -6, 5, -1.7, 10, 1.2
- COc1ccc(CCNC(=O)c2ccc(N3CCCC3=O)cc2)cc1OC
  19%, 4, -4, 3, 1.1, 1.3, 0.6
- COc1ccc(-c2csc3ncn(-c4ccc(C)cc4)c(=O)c23)cc1OC
  4%, 8, nt, 52, 0.9, 2.8, -0.2
- CCC(=O)N1CCN(c2nc(-c3ccccc3)c3c(c2C#N)CCCC3)CC1
  20%, -1, 0, -2, -2.2, -4.3, -8.2
- Cc1nc(Nc2cnc(/C=C/c3cc(C(=O)Nc4cccc(C(F)(F)F)c4)ccc3C)cn2)cc(N2CCNCC2)n1
  nt, nt, -3, 9, 41*, -10, nt
- CCn1c(=O)ccc2cc([N+](=O)[O-])ccc21
  3%, -5, nt, -2, 0.2, 0.0, -3.8
- CC1(C)C(=O)OC(c2cccn2-c2ccc([N+](=O)[O-])cc2)C(C)(C)C1=O (stereo not given)
  nt, -2, -1, 20, -2.6, -2.8, 3.1
- CC(C)Oc1ccc(S(=O)(=O)N2CCOCC2)cc1NC(=O)C1=COCCO1
  nt, -2, -14, 4, 3.9, -2.6, 0.0
- CCOC(=O)C1CCCN(C(=O)c2cc3ccccc3oc2=O)C1 (stereo not given)
  9%, 16, nt, 0, ?, -2.0, 3.0
- O=C(Nc1ccc(Cc2ccncc2)cc1)c1cc(F)c(F)cc1Cl
  -4%, -4, nt, -8, 0.2, 2.2, -1.6
- COc1ccccc1OCC(=O)Nc1cccc(-c2nnc(-c3ccco3)o2)c1
  4%, 1, 0, 20, -1.2, 1.4, 10
- c1ccc(-c2nnc(CSc3nnc(-c4ccncc4)n3Cc3ccco3)o2)cc1
  29%, 2, 30, 20, 5.6, -4.8, -1.1
- O=C(N/N=C/c1ccccn1)c1ccc(NC(=O)c2cccc([N+](=O)[O-])c2)cc1
  8%, 17, nt, 41, 4.1, 0.5, 8.6
- Cc1sc2nc(SCC(=O)N3CCOCC3)[nH]c(=O)c2c1-c1ccccc1
  nt, 16, -5, 6, -0.8, -2.2, 9.0
- C/C(=N\N=C(c1ccccc1)c1ccccc1)c1cccs1
  4%, 24, -3, -12, -1.3, 3.0, -3.1
- C/C(=N/Nc1nc(C)cc(C)n1)c1ccc(Br)cc1
  nt, -1, 1, 0, 0.6, -4.9, 0.9
- O=C(CCn1c(=O)oc2ccccc21)NCc1cccs1
  -8%, 0, -13, -3, 5.6, 0.0, -0.7
- Cc1ccc(C(=O)CN2C(=O)NC3(CCOc4ccccc43)C2=O)s1 (stereo not given)
  nt, -4, nt, nt, nt, -0.5, 1.2
- O=C(O)C(F)=C(c1ccccc1)c1ccccc1
  nt, 22, nt, -4, -4.0, -10, 0.5
- CCC1CCCN1Cn1cnc2c([nH]c3ccccc32)c1=O (stereo not given)
  ?, -10, 1, 5, -2.0, 4.6, -1.0
- Cc1noc(C)c1CCC(=O)N1CCCC(CCC(=O)NCc2ccccc2F)C1 (stereo not given)
  nt, nt, 7, ?, 0.9, -0.7, nt
- Cc1ccc(C)c(NC(=O)c2ccc(S(=O)(=O)N(C)CC3CCCO3)cc2)c1 (stereo not given)
  -8%, 0, -7, -1, -2.3, 3.2, 2.9
- CCn1cc(C(=O)Nc2ccc(Cl)cc2Cl)cn1
  nt, -3, -1, 1, -2.3, 7.4, 3.4
- O=C(O)CCc1ccc(-c2ccccc2)n1-c1cccc(C(=O)O)c1
  1%, -5, 15, 1, -4.1, 6.7, 0.4
- COc1ccc(-c2cc(C(=O)N3CCN(S(=O)(=O)c4ccccc4)CC3)[nH]n2)cc1
  1%, -5, 10, 0, 0.3, -3.7, 7.2
- C#CCN1C(=O)S/C(=C\c2ccc(-c3ccc(Cl)c(C(=O)O)c3)o2)C1=O
  nt, -10, 3, 4, 9.1, -2.6, -3.3
- CS(=O)(=O)N(Cc1ccc(Cl)cc1)c1ccc(C(=O)NCCC2=CCCCC2)cc1
  -1%, 1, 5, 6, 2.6, -2.5, 2.6
- COc1cccc(C(=O)Oc2cc3c4c(c2)C(C)=CC(C)(C)N4C(=O)C3=O)c1
  1%, 15, -3, 3, 3.5, -1.3, 1.0

Additional structures:
Each structure is followed by: Vif TR-FRET, Beta2AR agonist, ALR H2O2 inh, Calb FLC, RanGTP-Imp inh, LANA-H2B inh, HNF4A DNA FP
- CCOC(=O)c1c(C)oc2ccc(OCC(=O)N(CC)CC)cc12
  -9%, 4, 6, 13, -3.7, -2.7, 4.2
- CCOC(=O)Nc1ccc(C)cc1NC(=O)OCC
  -1%, 1, -3, -3, -0.6, -3.1, 4.7
- O=C(O)c1ccc(N=Cc2c(O)ccc3oc4c(c23)CCCC4)cc1
  15%, 10, 1, 7, -2.4, -3.4, -5.1
- COc1ccc(NC(=O)Nc2cccc3c2O[C@H](CN(C)S(=O)(=O)c2cn(C)cn2)[C@@H](C)CN([C@H](C)CO)C3=O)cc1
  nt, -5, -7, nt, nt, 0.5, -0.9
- COc1ccc(C(CC(=O)O)NC(=O)COc2ccccc2)cc1OC (stereo not given)
  -2%, 3, 23, 0, -0.2, 2.7, -1.1
- CCC(=O)/C=C1\Sc2ccc(OC)cc2N1CCO
  25%, -3, nt, ?, 2.9, 2.1, 1.4
- CCCOC1CCCN(Cc2nc(-c3ccc(C(=O)OC)cc3)no2)C1 (stereo not given)
  3%, -2, 1, -7, -0.6, -1.1, 3.7
- CCC(C)(C)NC(=O)C1CCC(CNS(=O)(=O)c2cccc3nsnc23)CC1 (stereo not given)
  -4%, -2, -6, -6, -2.9, -4.0, 4.3
- COc1ccc(Nc2nc(Cl)nc(NCc3ccco3)n2)cc1
  -3%, 0, 0, 5, 5.9, -2.6, -2.6
- O=C(Cn1nc(-c2cccc(Cl)c2)ccc1=O)Nc1ccccc1Br
  nt, 0, 0, -32, 0.6, -0.6, 4.2

In the list so far, two contain a cyano group.
Each structure is followed by: Vif TR-FRET, Beta2AR agonist, ALR H2O2 inh, Calb FLC, RanGTP-Imp inh, LANA-H2B inh, HNF4A DNA FP
- N#Cc1ccc(-c2ccc(Cl)cc2)nc1SCC(=O)c1cccc(Cl)c1
  -3%, -60, 32, -4, 1.0, 0.2, 1.6
- CCC(=O)N1CCN(c2nc(-c3ccccc3)c3c(c2C#N)CCCC3)CC1
  20%, -1, 0, -2, -2.2, -4.3, -8.2

The results go on:
Each structure is followed by: Vif TR-FRET, Beta2AR agonist, ALR H2O2 inh, Calb FLC, RanGTP-Imp inh, LANA-H2B inh, HNF4A DNA FP
- O=C(/C=C/c1ccco1)Nc1cccc(S(=O)(=O)N2CCOCC2)c1
  nt, -5, 7, -33, -4.6, 3.5, 2.3
- CCc1cccc(NC(=O)CN(c2ccc(OC)cc2)S(=O)(=O)c2c(C)n[nH]c2C)c1
  -2%, -5, -3, -2, -0.5, 0.6, -2.3
- CC1CC1C(=O)OCC(=O)Nc1ncc(Cl)cc1Cl (stereo not given)
  6%, 5, -28, -2, 0.8, -0.4, -5.7
- COc1ccccc1NC(=O)C1CCN(S(=O)(=O)c2ccc3c(c2)NC(=O)C(C)S3)CC1 (stereo not given)
  nt, 24, -14, 2, 0.5, -5.6, 13
- COc1ccc(-c2c(C)oc3cc(O)cc(O)c3c2=O)cc1OC
  9%, 4, nt, 2, 1.7, -2.9, -0.6
- NNC(=O)c1nn(-c2ccc(Cl)cc2)cc1O
  ?, 8, nt, -5, 5.8, -3.0, -1.2
- COc1ccc(C)cc1S(=O)(=O)N(C)CC(=O)NC1CCCC1
  nt, -1, -1, 37, 1.6, -2.5, -2.5
- C/C(=N\N1CCN(c2ccccc2)CC1)c1ccc(O)cc1
  -6%, 1, nt, -3, -0.8, nt, 1.2
